# Compound activity (PubChem BioAssay)
# D2 potentiator – Beta-Arrestin HTS for Positive Allosteric Modulators of the Human D2 Dopamine Receptor: Potentiators; D(2) dopamine receptor (Homo sapiens), P14416; DiscoveRx D2 beta-arrestin cells, luminescence, 90 min; 100% = 57 uM dopamine signal; potentiation, % (no concentration beside the values); 360,000 compounds, 0.23% hits; active = potentiation of 50% or more; inconclusive = 30% to 50%; inactive = 30% or less;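 also: compound concentration not given in the record; tested on top of an EC20 dose of dopamine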
#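 D2 cells co-treated with compound plus 50 nM dopamine (EC20) for 90 min at 37 deg C to detect potentiation. Beta-arrestin recruitment was read as enzyme-fragment luminescence after 1 h at ambient temperature. Full response was set by 57 uM dopamine.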
# ClpP mod – qHTS Assay for Activators of ClpP; ATP-dependent Clp protease proteolytic subunit (Bacillus subtilis (strain 168)), P80244; purified B. subtilis ClpP, FRET peptide cleavage, 20 min; Potency, µM (series often up to 57.5 µM), for inactives: at the highest dose activity change, negative = active; 340,000 compounds, 1.9% hits; active = well fitted falling curve with a large enough effect; inconclusive = small, poorly fitted or top-dose-only effect; inactive = no such curve, though single readings can be large or run the other way; also: potency is read from the fitted curve at half-maximal effect; the source files actives as falling curves though it sought activators and does not explain the sign; nearly all actives have a fitted effect of over 65% in size; many hits overshoot -100%
# Target sequence (P80244 whole entry, looked up): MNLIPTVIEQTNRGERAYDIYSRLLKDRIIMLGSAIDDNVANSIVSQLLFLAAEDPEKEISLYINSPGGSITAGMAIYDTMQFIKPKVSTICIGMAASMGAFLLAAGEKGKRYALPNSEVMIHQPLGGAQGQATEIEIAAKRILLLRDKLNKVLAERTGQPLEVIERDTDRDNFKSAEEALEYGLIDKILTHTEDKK
#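 Buffer: 100 mM Tris/HCl pH8, 100 mM KCl, 0.05% low protease BSA, 2.5% glycerol, 0.01% Tween-20. ClpP 10 microg/mL final; 20 min RT; delta FRET normalized to ADEP and DMSO controls.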
# gsp ag – qHTS for Agonist of gsp, the Etiologic Mutation Responsible for Fibrous Dysplasia/McCune-Albright Syndrome: qHTS. gsp mutant cells, cAMP HTRF, 30 min; control for the full effect not named in the record. Potency, µM (highest dose often 76.9 µM), inactives show at the top dose activation (cAMP increase), hits mostly activators. 340,000 compounds, 0.13% hits. AID 624287, 2012; active = well fitted activation curve with a large enough effect; inconclusive = small, poorly fitted or top-dose-only effect, or another doubt; inactive = no such curve, though single readings can be large or run the other way; cell line not stated here;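 also: phosphodiesterase inhibitor Ro 20-1724 added with compounds to block cAMP breakdown; potency is read from the fitted curve at half-maximal effect; nearly all actives have a fitted effect of over 60% in size; about a fifth of the inactives were tested at one dose only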
#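 Cells in DMEM/10% FBS with G418 were pretreated with compounds in DMSO plus […] (300 uM stock) for 30 min at 37C. cAMP was measured by HTRF (cAMP-d2 plus anti-cAMP antibody-K) after 30 min at room temperature.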
# TRPV1 PAM – HTS Assay for Compounds that Act as Potentiators of the Vanilloid Receptor 1; TRPV1-expressing cells, Fluo-8 calcium influx, capsaicin EC20 potentiation; host cell line not named in the record; control for the full effect not named in the record; potentiation, % at 8.33 µM; AID 540277, 2011; Transient receptor potential cation channel subfamily V member 1 (Homo sapiens), Q8NER1; 320,000 compounds, 0.02% hits; active means potentiation above 80%; inconclusive means 30% to 80%; inactive means below 30%; also: 0% is about no effect
# Target sequence (Q8NER1 whole entry, looked up): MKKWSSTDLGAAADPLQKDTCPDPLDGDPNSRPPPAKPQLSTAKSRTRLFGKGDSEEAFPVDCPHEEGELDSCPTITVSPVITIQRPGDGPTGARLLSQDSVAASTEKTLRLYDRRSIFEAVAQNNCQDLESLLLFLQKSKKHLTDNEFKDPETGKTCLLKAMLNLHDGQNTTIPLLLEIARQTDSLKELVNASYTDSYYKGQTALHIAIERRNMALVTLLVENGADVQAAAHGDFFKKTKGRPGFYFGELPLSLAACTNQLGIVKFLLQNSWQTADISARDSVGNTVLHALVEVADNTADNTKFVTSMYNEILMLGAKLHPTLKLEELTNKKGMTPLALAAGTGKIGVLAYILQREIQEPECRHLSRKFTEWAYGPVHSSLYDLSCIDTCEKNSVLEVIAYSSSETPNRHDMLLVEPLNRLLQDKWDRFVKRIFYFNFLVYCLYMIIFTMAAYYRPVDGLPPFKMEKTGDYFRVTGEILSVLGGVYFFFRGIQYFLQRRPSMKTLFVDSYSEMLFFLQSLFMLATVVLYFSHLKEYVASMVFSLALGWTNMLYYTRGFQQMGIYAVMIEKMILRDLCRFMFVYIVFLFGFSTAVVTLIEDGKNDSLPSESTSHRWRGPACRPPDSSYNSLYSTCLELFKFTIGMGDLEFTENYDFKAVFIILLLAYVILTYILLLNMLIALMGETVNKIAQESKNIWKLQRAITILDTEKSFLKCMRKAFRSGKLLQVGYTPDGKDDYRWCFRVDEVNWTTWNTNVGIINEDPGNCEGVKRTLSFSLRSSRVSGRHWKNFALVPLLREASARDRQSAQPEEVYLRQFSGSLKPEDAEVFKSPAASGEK
#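 Fluo-8 calcium influx in TRPV1-expressing cells, kinetic read (ex 480/em 520 nm). Compound added and read 3 min for agonist activity, followed by capsaicin at EC20 final and 2 min further read for enhancement.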
# gsp antag – qHTS for Antagonists of gsp, the Etiologic Mutation Responsible for Fibrous Dysplasia/McCune-Albright Syndrome: qHTS; Potency, µM (top dose mostly 76.9 µM), inactives show at the highest dose activity change, negative = inhibition, actives largely listed as inhibitors; gsp-mutant cells, cAMP HTRF, 30 min; control for the full effect not named in the record; 340,000 compounds, 0.4% hits; AID 624288, 2012; active = falling curve of any shape with a large fitted effect; inconclusive = falling curve, mostly with a smaller effect; inactive = flat or rising curve; cell line not stated here;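 also: intracellular cAMP measured with PDE inhibitor Ro 20-1724 present during compound exposure; potency is read from the fitted curve at half-maximal effect; % is scaled to controls: 0 for no effect and ±100 for the full control effect; nearly all actives have a fitted effect of over 65% in size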
#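 Cells, 2000/well, grown 16–24 h in DMEM 10% FBS with 0.5 mg/ml G418, then compounds plus […] (300 uM addition stock), 30 min at 37C. cAMP read by HTRF (cAMP-d2 and anti-cAMP antibody-K in lysis buffer) after 30 min RT.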
# Sfp PPTase inh – qHTS Assay for Inhibitors of Bacillus subtilis Sfp phosphopantetheinyl transferase (PPTase); 4'-phosphopantetheinyl transferase ffp (Bacillus subtilis), Q9F4F7; Biochemical Sfp PPTase activity, qHTS; Potency, µM, inactives show max response, negative = inhibition, actives largely listed as inhibitors; 310,000 compounds, 3.5% hits; active = well fitted inhibition curve with a large enough effect; inconclusive = small, poorly fitted or top-dose-only effect, or another doubt; inactive = no such curve, though single readings can be large or run the other way;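 also: the enzyme is Sfp with the accession as filed and its product quenches rhodamine fluorescence; potency is read from the fitted curve at half-maximal effect; 0% = enzyme reaction without inhibitor and -100% = no enzyme wells; top concentration of the series not given in the record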
#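 With Hepes-Na pH 7.6 buffer containing 10 mM MgCl2, Sfp (15 nM) modified BHQ-2-YbbR (12.5 uM) using rhodamine-CoA (5 uM). Two reads 30 minutes apart at 525/598 nm yielded each well's rate.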
# Menin-MLL FL inh – qHTS Assay for Inhibitors Targeting the Menin-MLL Interaction in MLL Related Leukemias: Competition With Fluorescein Labeled MLL-derived Peptide; Fluorescence polarization, fluorescein-MLL peptide displacement from menin; FP activity change, % at 61.4 µM; 290,000 tested, under 10 active; AID 1766, 2009; inconclusive = falling polarisation curve, or a change in total fluorescence; inactive = total fluorescence flat and polarisation flat or rising; no compound was filed as active; the % refers to the polarisation; negative = inhibition;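 also: % of control where 0% means no effect; inhibitors lower the polarisation; unlabelled MLL peptide was the positive control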
# * marks the source's active call; other numbers are inactive results; ? = inconclusive; nt = not tested or not shown; & = joins results of further samples; [ ] = remark or other dose.
SMILES,D2 potentiator,ClpP mod,gsp ag,TRPV1 PAM,gsp antag,Sfp PPTase inh,Menin-MLL FL inh
CCc1ccc(NC(=O)NCCN2CCc3ccccc3C2)cc1,-24,-1.2%,-22%,5,6%,-10%,35[activator]
CN(CC(=O)Nc1ccc(F)c(F)c1F)C(=O)CCN1C(=O)C2CC=CCC2C1=O (stereo not given),-7,-0.8%,-63%[inhibitor],nt,nt,nt,nt
CC(C)C(=O)Nc1nnc(SCC(=O)N2C(C)CCCC2C)s1 (stereo not given),-10,nt,7%[15.4 µM],-5,-4%,-18%,-6.0
CC(C)(C)NC(=O)c1cccc2c1-c1ccccc1C2=O,-3,0.8%,-25%,4,8%,10%,-16
COC(=O)COc1ccc2c(c1)O/C(=C\c1ccco1)C2=O,-6,-0.5%,-3%[15.4 µM],3,-5%,56µM*,23
COC(=O)c1c(C)[nH]c(C(=O)/C=C/c2ccc(C)cc2)c1C,-22,8.3%,-42%,-2,-14%,21%,3.1
CN1N=C(C(=O)NC2CCCc3c2cnn3-c2ccc(F)cc2F)CCC1=O (stereo not given),-4,-0.2%,21%,-15,13%,18%,4.1
CC(=O)c1c(C)[nH]c(-c2ccccc2)nc1=S,-14,nt,12%[15.4 µM],nt,-1%,-21%,0.4
O=C1/C(=C/c2cccc(F)c2)CSc2sccc21,-26,-7.0%,-29%,5,-7%,8%,0.2
Cc1cc(=O)oc2c3c(cc(OCC(=O)NCCCn4ccnc4)c12)OC(C)(C)CC3,1,4.3%,1%,-10,5%,18%,-1.9
CCc1ccc(NC(=O)C(C)Sc2nnc(CN3CCCC3)o2)cc1 (stereo not given),-2,0.4%,29%,1,1%,nt,nt
COc1cc(C(=O)N2Cc3cc4ccccc4nc3C2C)cc(OC)c1OC (stereo not given),-3,-0.3%,-33%[inhibitor],nt,nt,nt,nt
Cc1cc(/C=C(/C#N)c2nc3ccccc3[nH]2)c(C)n1-c1ccccc1C(=O)O,-15,nt,-12%[15.4 µM],-2,2%,18%,?
Cc1cc(=S)[nH]c(=S)[nH]1,-17,-0.3%,7%,8,7%,45µM*,0.9
O=C(c1cccc(S(=O)(=O)Nc2cccc(C(F)(F)F)c2)c1)N1CCCCC1,-6,-2.6%,4%,3,-8%,7%,1.0
O=C(COC(=O)c1ccc(OC(F)F)cc1)NCC1CCCO1 (stereo not given),-6,1.6%,1%,nt,nt,nt,nt
CCc1noc(C)c1C(=O)N1CCN(S(=O)(=O)c2ccc(C(C)=O)cc2)CC1,-22,-2.0%,-6%,0,1%,nt,nt
Cc1ccc(NC(=O)/C(=C\c2cccs2)NC(=O)c2ccccc2)cc1,-7,0.8%,-5%[15.4 µM],-2,12%,5%,0.2
Clc1ccc2[nH]cc(-c3nnnn3-c3ccc4ccccc4c3)c2c1,14,?,-21%,-6,-22%,17%,-1.7
CC(C)n1c(N2CCN(CC(=O)Nc3ccc4c(c3)OCCO4)CC2)nc2ccccc21,-19,-0.2%,8%,-3,-7%,3%,1.7
Cc1ccc(Nc2cc(C)nc3ccc(C)cc23)cc1,-23,nt,1%,-16,5%,9%,0.5
CCCN(CC(=O)Nc1ccccc1C)C(=O)c1ccc(C)c(S(=O)(=O)N2CCCCC2)c1,-42,0.7%,-14%[15.4 µM],-23,-22%,nt,nt
CCOc1ncccc1C(=O)OCC(=O)c1cc(OC)c(OC)c(OC)c1,-3,nt,10%[15.4 µM],4,-1%,16%,-0.2
CCC(=O)OCCCCCCOc1ccc(C(=O)O)cc1,9,-0.5%,29%,4,-9%,5%,-1.2
COc1ccc(NC2=CC(=O)CC(c3ccccc3)C2)cc1 (stereo not given),-5,nt,12%[15.4 µM],0,0%,16%,-1.5
# Continued:
SMILES,D2 potentiator,ClpP mod,gsp ag,TRPV1 PAM,gsp antag,Sfp PPTase inh,Menin-MLL FL inh
CSCCC(NC(=O)c1ccccc1Cl)C(=O)NCC(c1cccs1)N(C)C (stereo not given),-38,-6.4%,12%,1,1%,nt,nt
COc1ccc(-c2cc(C(F)(F)F)n3nc(C(=O)N4CCCCC4)cc3n2)cc1,8,-17%,0%,-4,1%,-22%,-1.0
CCOC(=O)N1CCN(C(=O)/C(=C/c2ccc(N(C)C)cc2)NC(=O)c2ccccc2)CC1,7,1.9%,-7%,5,0%,nt,nt
CCOC(=O)C1=CNS(=O)(=O)NC1c1ccc(C#N)cc1 (stereo not given),-3,-12%,nt,nt,11%,nt,nt
CCOC(=O)N1CCN(C(=O)C(C)N(c2ccc(Oc3ccccc3)cc2)S(C)(=O)=O)CC1 (stereo not given),-5,-2.3%,6%,-12,?,6%,-1.0
O=C(NCc1ccc(Cl)cc1)C1CCC(=O)N(C2CC2)C1 (stereo not given),-7,2.5%,-2%,-8,10%,2%,0.7
[O-][N+]1=c2ccc(Nc3ccccc3)cc2=NC12CCCCC2,-21,0.2%,-55%,2,-21%,-21%,5.0
Cc1cc(/C=N/n2cnnc2)c(C)n1-c1ccc(OCc2ccc(Cl)cc2)cc1,-9,-5.9%,-32%,4,21%,45µM*,6.1
COc1nc(OC)nc(N2CCC(NC(=O)C(Cc3ccc(C(C)C)cc3)NC(C)=O)CC2)n1 (stereo not given),-2,-0.1%,3%,3,-2%,9%,-1.2
O=C(NCc1ccco1)c1nn2c(C(F)(F)F)cc(-c3cccs3)nc2c1Br,5,-1.8%,-4%,16,?,20µM*,1.0
COc1cccc(N2C(=O)c3cccnc3C2O)c1 (stereo not given),-6,nt,-16%[15.4 µM],2,11%,19%,0.6
CCc1cc2c(=O)[nH]c(Cc3ccccc3)nc2s1,-4,-1.9%,-19%,3,0%,-1%,1.8
O=C(COC(=O)c1cnccn1)Nc1cccc(F)c1,-5,0.0%,?,nt,4%,nt,nt
Cc1cccc(NC(=O)CSc2nncn2-c2ccccn2)c1,4,nt,15%[15.4 µM],-16,3%,-8%,5.0
CC(=O)/C(=C\Nc1ccc(OCc2ccccc2)cc1)c1ccccc1,-2,-3.0%,-5%,-21,4%,?,-0.7
O=C(Nc1ccccc1)c1ccc(-n2cnnn2)cc1,-10,-2.0%,4%,-12,-5%,17%,nt
COc1ccc(OC)c(NC(=O)C2C3CCC(C3=C(C)C)C2C(=O)O)c1 (stereo not given),15,0.5%,30%,11,1%,40µM*,2.2
O=C1CCN(CCc2ccccc2)CCN1CCSc1ccccc1,-30,2.1%&0.3%,8%,-10,4%,-1%,0.7
O=C(N/N=C/c1ccc(COc2ccc(Br)cc2)o1)c1ccc2c(c1)OCO2,-2,-9.2%,?,-7,?,9%,-0.6
O=C(N/N=C\c1ccccc1)c1cccc(C(=O)N/N=C\c2ccccc2)n1,21,nt,10%[15.4 µM],nt,-8%,nt,nt
Cc1cc(C(C)(C)C)cc(CN2CCN(S(=O)(=O)c3cccs3)CC2)c1O,-21,-5.9%,-108%[inhibitor],nt,nt,nt,nt
O=C(N/N=C/c1ccoc1)c1cc(O)cc(O)c1,-1,-3.4%,-5%[15.4 µM],-4,6%,1%,nt
CC(C)Oc1ccc2c3c(c(=O)oc2c1)CCC3,-2,?,17%,-11,-3%,1%,-4.6
O=C(CN1C(=O)c2cccc3cccc(c23)C1=O)N1CCCCCC1,-7,28µM*,-44%[inhibitor],-5,-1%,-11%,2.7
Oc1ccc(-c2ccccc2)cc1CN1CCCCCC1,-24,nt,-14%,?,6%,89µM*,2.1
# (continued)
SMILES,D2 potentiator,ClpP mod,gsp ag,TRPV1 PAM,gsp antag,Sfp PPTase inh,Menin-MLL FL inh
Cc1cc(OCC(=O)NC(C)(C)C)ccc1Cl,-7,-0.5%,28%,-8,1%,9%,1.4
C=CCN1C(=O)CN=C1NCc1ccccc1,-15,0.5%,0%,12,0%,-3%,5.0
Cc1ccc(Nc2nc3ccccc3o2)cc1F,0,-2.5%,-10%,?,-11%,4%,-1.6
COc1ccccc1N1CCN(C(=O)c2sc3nc(-c4ccc(F)cc4)cn3c2C)CC1,-4,0.1%,6%,7,-27%,6%,1.7
CCN(c1ccc(C)c(C)c1)S(=O)(=O)c1ccc2c(c1)CCN2C(=O)CCC(=O)O,-9,0.9%,?,0,-23%,3%,0.7
C/C(=N\NC(=O)COc1cccc(Cl)c1)c1ccc2c(c1)OCCO2,3,11%,-23%,-3,-12%,6%,-4.1
Cc1c(C)c2c(OCC(=O)N3CCC(C(=O)NCC(C)C)CC3)cc3c(c2oc1=O)CCC(C)(C)O3,3,3.7%,41%,0,-17%,10%,-0.1
Cc1ccc(CNC(=O)CCS(=O)(=O)Cc2ccc(C)cc2)cc1,-11,1.7%,3%,6,14%,15%,1.7
O=C(Nn1c(SCc2ccc([N+](=O)[O-])cc2)nc2ccccc2c1=O)c1ccc(F)cc1,-3,-0.7%,0%[15.4 µM],-10,-28%,7%,5.6
O=C(c1cc2cc(Br)ccc2o1)N1CCCC1,11,0.8%,-1%,-7,-1%,20%,6.6
CCCNC(=O)c1c(O)c2cccc3c2n(c1=O)CCC3,-8,-7.8%,-12%,-14,15%,6%,1.6
CCCn1c(NC(=O)c2ccccc2)nc2ccccc21,-17,2.1%,-15%,-3,-7%,-5%,2.7
Cc1ccc2[nH]cc(CCNC(=O)Nc3ccccc3)c2c1,-4,-3.4%,4%,-7,-3%,15%,-0.4
O=C(CC1Sc2ccccc2NC1=O)NNC(=O)Nc1ccc(Cl)cc1 (stereo not given),-2,nt,-9%[15.4 µM],-5,3%,3%,0.5
O=C(COC(=O)c1cccc(O)c1)c1ccccc1,11,1.0%,-20%,2,21%,nt,nt
